PINK1 modulator: PINK1 expression modulation. PINK1 immunofluorescence, high-content cytometry, 24 h. Potency, µM (highest dose often 76.6 µM), for the others: at the top dose activation (PINK1 increase), usual class: activators. AID 624263. actives 0.2% (n = 410,000); active = well fitted activation curve with a large enough effect; inconclusive = small, poorly fitted or top-dose-only effect; inactive = flat fitted curve, though single readings scatter; cell line not stated here;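 note: potency is the fitted concentration of half-maximal effect; % of control where 0% means no effect; nearly all actives have a fitted effect of over 65% in size; a mitochondrial uncoupler was the plate control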
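PINK1 protein level read as immunofluorescence by microplate cytometer in a fixed, stained stable cell line after 24 h exposure to five compound concentrations, with CCCP as control.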
D2 agonist: human D2 receptor agonism in beta-arrestin assay; actives 0.084% (n = 360,000); P14416; activation, % (concentration not given with the values); DiscoveRx PathHunter D2 beta-arrestin, luminescence, 90 min; 100% = 57 uM dopamine signal; in the data active = activation above about 40%; inconclusive = about 15% to 40%; inactive = below about 15%; note: compound concentration not given in the record; the text of the record calls up to 30% inactive
Target sequence (P14416 whole entry, looked up): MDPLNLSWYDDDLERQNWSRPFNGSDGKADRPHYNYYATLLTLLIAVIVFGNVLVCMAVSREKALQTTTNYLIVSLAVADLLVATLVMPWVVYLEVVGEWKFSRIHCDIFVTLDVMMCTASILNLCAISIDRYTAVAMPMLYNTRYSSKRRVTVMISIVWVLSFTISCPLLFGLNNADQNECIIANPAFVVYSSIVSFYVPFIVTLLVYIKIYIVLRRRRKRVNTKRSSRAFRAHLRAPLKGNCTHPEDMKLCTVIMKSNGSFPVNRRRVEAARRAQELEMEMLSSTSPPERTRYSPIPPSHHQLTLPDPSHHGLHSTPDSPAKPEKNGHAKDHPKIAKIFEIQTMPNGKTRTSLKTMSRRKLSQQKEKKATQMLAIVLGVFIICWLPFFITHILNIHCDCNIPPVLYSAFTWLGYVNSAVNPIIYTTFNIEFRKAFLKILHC
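Agonist mode: compounds alone added to overnight-plated D2 PathHunter cells for 90 min at 37 C, with 57 uM final dopamine (EC100) defining full response. Beta-arrestin recruitment detected by chemiluminescent reagent, read after 1 h at ambient temperature.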
Six1-Eya2 inh: Six1/Eya2 interaction inhibition; Q15475+O00167; AlphaScreen GST-Six1/His-Eya2 binding, biochemical; active compounds read low; control for the full effect not named in the record; activity change, % (no concentration beside the values); actives 0.56% (n = 360,000); in the data active = activity change below about -65%; inconclusive = about -30% to -65%; inactive = above about -30%; note: % is set by controls: 0 for no effect and ±100 for the full control effect
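Six1/Eya2 binding was read as AlphaScreen signal after compounds were pinned into GST-Six1 plus His-tagged Eya2 (5X stock 250/500 nM) in pH 8.0 Tris/NaCl/TCEP buffer, beads added, then incubated 1 h, 37 C, dark.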
TRPML1 inh: inhibitors of human TRPML1 channel; TRPML1-inducible cells, Ca2+ dye fluorescence, FDSS; active compounds read low; inhibition of EC80 agonist-evoked calcium signal; Q9GZU1; actives 0.02% (n = 390,000); activity change, negative = inhibition, % (test concentration not listed); AID 624415; in the data active means activity change below about -50%; inconclusive means about -30% to -50%; inactive means above about -30%;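 note: stimulus is agonist 54-4 at its EC80 concentration; % is set by controls: 0 for no effect and ±100 for the full control effect; compound concentration not given in the record; the text of the record puts the active cut at -80%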
Target sequence (Q9GZU1 whole entry, looked up): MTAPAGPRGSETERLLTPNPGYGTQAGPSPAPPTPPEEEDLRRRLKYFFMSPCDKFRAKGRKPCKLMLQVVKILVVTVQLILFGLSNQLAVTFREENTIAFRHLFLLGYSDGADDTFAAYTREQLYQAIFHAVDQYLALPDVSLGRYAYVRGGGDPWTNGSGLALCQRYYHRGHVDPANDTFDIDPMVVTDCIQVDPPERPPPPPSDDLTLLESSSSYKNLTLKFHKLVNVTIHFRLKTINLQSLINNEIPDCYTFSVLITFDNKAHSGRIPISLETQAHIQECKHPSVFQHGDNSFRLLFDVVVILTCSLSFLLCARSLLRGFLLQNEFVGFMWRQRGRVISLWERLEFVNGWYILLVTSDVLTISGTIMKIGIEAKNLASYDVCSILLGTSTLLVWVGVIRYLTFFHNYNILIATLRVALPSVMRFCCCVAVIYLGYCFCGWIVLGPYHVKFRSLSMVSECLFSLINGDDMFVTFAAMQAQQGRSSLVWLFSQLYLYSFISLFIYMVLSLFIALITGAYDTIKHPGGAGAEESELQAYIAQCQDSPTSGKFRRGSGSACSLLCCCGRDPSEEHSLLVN
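Calcium fluorescence in TRPML1-DL cells induced overnight with Tet: a 110 s read after compound pin addition, then a 110 s antagonist read after challenge with 54-4 at 4 uM final (EC80).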
TRPML1 agonist: activates the human TRPML1 channel. AID 624414. TRPML1-expressing cells, Ca2+ dye fluorescence, FDSS; host cell line not named in the record; reference of the full effect not given here. Q9GZU1. activation, % (concentration not given with the values). actives 0.12% (n = 410,000); in the data active = activation above about 50%; inconclusive = about 30% to 50%; inactive = below about 30%; note: 0% is about no effect; the text of the record puts the active cut at 80%
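Tetracycline-induced TRPML1-DL cells are seeded and incubated overnight before loading with a no-wash Ca2+ dye and quencher. Agonist activity is taken from the 110 s fluorescence read following compound pin-transfer on an FDSS, before EC80 54-4 challenge.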
D2 PAM: potentiates the human D2 dopamine receptor allosterically. DiscoveRx D2 beta-arrestin cells, luminescence, 90 min; 100% = 57 uM dopamine signal. potentiation, % (concentration not given with the values). P14416. actives 0.23% (n = 360,000); active = potentiation of 50% or more; inconclusive = 30% to 50%; inactive = 30% or less;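 note: compound concentration not given in the record; tested on top of an EC20 dose of dopamine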
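D2 cells co-treated with compound plus 50 nM dopamine (EC20) for 90 min at 37 deg C to detect potentiation. Beta-arrestin recruitment was read as enzyme-fragment luminescence after 1 h at ambient temperature. Full response was set by 57 uM dopamine.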
An asterisk follows results filed as active; ? = inconclusive; . = no result given; & = joins results of further samples; [ ] = dose if it differs, or a comment.

# | SMILES | PINK1 modulator | D2 agonist | Six1-Eya2 inh | TRPML1 inh | TRPML1 agonist | D2 PAM
1 | CC(C)CCNC(=O)C(=O)Nc1cc2c3c(c1)CCC(=O)N3CCC2 | 3.2% | -5.0 | -1 | 34 | -0.9 | -7
2 | CCN(CC)S(=O)(=O)c1cccc(C(=O)NC(C(=O)Nc2nnc(C3CC3)s2)C(C)C)c1 (stereo not given) | 1.7% | 1.0 | -8 | -7 | 4.0 | -3
3 | Cc1sc2ncnc(N3CCC(C(=O)Nc4cc(S(C)(=O)=O)ccc4Cl)CC3)c2c1C | 3.0% | 3.8 | -20 | -23 | 1.0 | 0
4 | Cc1cccc(C(=O)Nc2cccc(S(=O)(=O)NCc3ccco3)c2)c1 | -0.1% | -3.9 | -15 | 6 | 1.8 | -26
5 | CC(C)(C)C(=O)Nc1nnc(Cc2ccccc2)s1 | 5.6%[38.3 µM] | -5.6 | 1 | 25 | 2.0 | -1
6 | CC1CCCN(C(=O)COC(=O)c2cccc(NS(=O)(=O)c3ccccc3)c2)C1 (stereo not given) | 0.4% | -2.1 | -3 | -11 | -0.5 | -9
7 | CN(CC(=O)Nc1ccccc1Cl)C(=O)COC(=O)/C=C/c1cccc(C(F)(F)F)c1 | 1.4% | 0.5 | -4 | 2 | 0.5 | -1
8 | Cc1ccc(-n2ncc(C(=O)N3CCN(c4ccccc4F)CC3)c2C2CCN(C(=O)OC(C)(C)C)CC2)cc1C | -1.1% | . | . | -22 | 0.6 | .
9 | O=C(COc1ccc(Cl)cc1)NC1CCSC1=O (stereo not given) | -2.8% | -1.1 | 10 | 9 | -0.2 | -18
10 | CC(Oc1ccc(F)cc1)C(=O)Nc1cc(S(=O)(=O)N2CCCCC2)ccc1N1CCOCC1 (stereo not given) | 4.4% | 0.4 | -2 | -8 | 2.1 | 3
11 | CN(Cc1c(C(=O)N/N=C/c2ccc(O)cc2)nnn1-c1nonc1N)c1ccccc1 | 1.2% | 4.4 | -9 | 4 | -1.0 | -1
12 | COc1ccc(-n2ncc(C(=O)NCc3ccco3)c2C2CCN(C(=O)OC(C)(C)C)CC2)cc1 | -0.5% | . | . | -12 | 0.3 | .
13 | CN1CCN(c2ccc(S(=O)(=O)N3CCCCC3)cc2NC(=O)Cc2c(F)cccc2Cl)CC1 | 2.3% | -5.1 | -13 | 8 | -0.3 | -9
14 | CCc1ccc(-c2nc(CN3CCC(C(=O)NCc4ccccc4OC)CC3)c(C)o2)cc1 | . | -10.0 | -13 | -8 | -0.2 | -32
15 | CC12CCC3C(=CCc4cc(O)ccc43)C1CC(=NO)C2O (stereo not given) | -1.0% | -2.2 | -2 | 7 | -0.2 | -13
16 | c1ccc(CN2CN=C(Nc3nc4ccccc4s3)NC2)cc1 | -1.9% | 1.0 | 8 | 18 | 2.5 | -8
17 | Cc1csc(NC(=O)CSc2nc3[nH]c(=O)cc(O)c3s2)n1 | 0.4% | 0.6 | 18 | 14 | 0.0 | 8
18 | CN(Cc1cc2ccccc2[nH]c1=O)C(=O)c1cccs1 | 1.1% | -0.3 | 7 | -17 | -0.6 | -2
19 | CCOc1ccc(S(=O)(=O)Nc2ccc(S(=O)(=O)N3CCCCC3)cc2)cc1 | . | -4.1 | -1 | 18 | 0.4 | 2
20 | Cc1cc(C)cc(NC(=O)Cn2nnc(C(=O)NCc3ccc4c(c3)OCO4)c2N)c1 | 11% | -1.7 | -1 | 1 | -0.3 | -6
21 | CCOC(=O)C(NC(C)=O)(Nc1ccc(S(=O)(=O)Nc2onc(C)c2C)cc1)C(F)(F)F (stereo not given) | 0.4% | 0.2 | 1 | 11 | -0.6 | -10
22 | CCc1ccc(NC(=O)Cn2cc(S(=O)(=O)N3CCCC3)c(S(=O)(=O)N3CCCC3)c2)cc1 | 3.8% | . | . | -2 | -1.2 | .
23 | O=C(COC(=O)c1cc2ccccc2cc1O)c1ccccc1 | 2.8% | 0.7 | 14 | 6 | 1.4 | -6
24 | CCCS(=O)(=O)N1CCN=C1SCc1cccnc1 | 0.0% | -4.7 | 3 | -11 | -0.1 | 3
25 | CC(C)(CNC(=O)CNC(=O)c1ccc(Cl)cc1Cl)N1CCOCC1 | 3.0% | -5.3 | 6 | 11 | -0.1 | -8

More records follow:
# | SMILES | PINK1 modulator | D2 agonist | Six1-Eya2 inh | TRPML1 inh | TRPML1 agonist | D2 PAM
26 | CCNCc1ccc(OCc2ccccc2F)c(OC)c1 | 1.3% | -4.1 | -1 | 7 | 0.1 | -9
27 | Cc1oc(C)c2c(=O)cc(-c3ccc4c(c3)OCO4)cc(OC(=O)c3ccccc3Cl)c12 | 1.5% | . | . | -26 | 1.1 | .
28 | C/C(=N\NC(=O)C(N)=O)c1ccc(OC(F)F)cc1 | 0.2% | -1.6 | 7 | -12 | 0.3 | -2
29 | COC(C(=O)N/N=C(\C)CC(=O)Nc1ccc(Cl)cc1C)c1ccccc1 (stereo not given) | 1.4% | -0.1 | -5 | 2 | -0.5 | -5
30 | COC(=O)c1ccc(NC(=O)Nc2ccc(C)cc2)cc1 | 0.0% | -1.1 | -4 | 0 | 0.9 | -7
31 | O=C(CSc1ccccc1)NCc1ccco1 | -0.9% | -1.6 | 4 | -3 | -0.3 | -16
32 | COCc1ccc(-c2c(-c3cccc(OC)c3)sc3ccc(OC)cc23)cc1 | 0.9% | -1.4 | 10 | 13 | 0.9 | -7
33 | CC(C)/C=C(/C(=O)c1ccc(Cl)cc1Cl)n1cncn1 | 0.7% | 46* | 4 | 18 | -0.3 | 21
34 | Cc1ccc(OCC(=O)N/N=C/c2cccn2C)cc1C | 0.7% | -7.0 | -25 | -7 | 0.4 | -19
35 | CCOC(=O)C1=NN(C(=O)c2ccco2)C2(CC2)C1 | 0.3% | -0.6 | 0 | 4 | 1.8 | -6
36 | COc1ccc(CNC(=O)Cn2nc(N3CCN(c4ccccc4)CC3)ccc2=O)c(OC)c1 | 2.1% | . | . | -8 | 3.5 | .
37 | O=C(CN1CCCCC1)Nc1cccc(Oc2ccccc2)c1 | 2.0% | -3.8 | 0 | 6 | 0.0 | -24
38 | CN(C)c1ccc(NC(=O)CN2CCN(c3ccc(F)cc3)CC2)cc1 | 3.7% | 0.9 | -5 | . | . | -7
39 | N#Cc1cc2c(nc1SCc1ccccc1)CCCC2=O | 11%[38.3 µM] | 2.6 | -1 | 7 | 0.1 | -8
40 | CC(O)c1cc2c(cc1NC(=O)c1cnn3c1NC(c1ccco1)CC3C(F)(F)F)OCO2 (stereo not given) | 11% | 4.0 | -3 | -20 | 0.1 | -9
41 | O=C1CSC(c2ccc(F)c(F)c2)N1c1ccccc1F (stereo not given) | 4.5% | -0.4 | 3 | 8 | 0.4 | -15
42 | O=C(NC1CCCCC1)C1(c2ccccc2)CC1(Cl)Cl (stereo not given) | 0.9% | -1.9 | 9 | -8 | 0.0 | -9
43 | CC(C)NC(=O)C(=O)NCCN1CCN(C(=O)c2ccc(C(C)(C)C)cc2)CC1 | 0.7% | -3.0 | 11 | -27 | 0.2 | -5
44 | CC1(CCc2ccccc2)NC(=O)N(CC(=O)Nc2ccc3c(c2)OCCO3)C1=O (stereo not given) | 0.9% | -5.4 | -3 | -20 | -0.4 | -3
45 | COc1ccc(NC(=O)CSc2nc3c(c(=O)n2-c2ccc(F)cc2)SCC3)c(OC)c1 | -3.7% | -4.4 | -24 | ? | 1.2 | -20
46 | COc1ccc(-n2c(C)nc3c(cnn3-c3ccc(C)c(C)c3)c2=O)cc1 | 3.1% | -5.2 | 1 | 35 | 0.0 | 2
47 | COc1ccc(/C=C(/NC(C)=O)C(=O)O)cc1 | 0.5% | 1.9 | 1 | 0 | -1.4 | -4
48 | CS(=O)(=O)N1CCc2cc(C(=O)N3CCN(c4cccc(Cl)c4)CC3)ccc21 | 1.1%&-0.4% | 2.4 | ? | 1&30 | -0.9&-0.1 | 2
49 | COC(=O)c1[nH]c2c(c1C(=O)OC)CCc1ccccc1-2 | 2.3% | 1.8 | -18 | -6 | -1.6 | -7
50 | COc1ccc(/C(C)=N/NC(=O)CNC(=O)Cc2ccccc2)c(OC)c1 | -1.4% | -6.9 | 4 | 31 | 1.6 | 1

(listing goes on)
# | SMILES | PINK1 modulator | D2 agonist | Six1-Eya2 inh | TRPML1 inh | TRPML1 agonist | D2 PAM
51 | COc1cccc(-c2ncc3ccccc3c2COC(=O)N(C)C)c1 | 2.9% | 1.6 | 0 | 9 | 0.6 | -4
52 | Cc1cccc(N(C)C(=O)C(Cc2ccccc2)NS(=O)(=O)c2cccc3nsnc23)c1 (stereo not given) | 1.7% | . | . | 4 | 1.1 | .
53 | O=C1c2ccccc2NC(c2ccccc2)N1CCCN1CCOCC1 (stereo not given) | -1.0% | -5.7 | -2 | 33 | -0.8 | -13
54 | O=C(NNc1c2ccccc2nc2ccccc12)c1ccccc1O | 3.8% | -5.0 | ? | -2 | -0.3 | -20
55 | NNc1nc(-c2ccccc2)cs1 | ? | -3.0 | -2 | 7 | 0.7 | -6
56 | O=C(c1ccncc1)N1CCN(c2ccc(F)cc2)CC1 | 1.5% | -4.7 | 8 | 19 | -0.6 | -20
57 | C=Cn1cc[n+](CC(=O)c2ccc(OC)c(OC)c2)c1 | 1.6% | 0.4 | 0 | 1 | -0.4 | -5
58 | CC1CN(CCCOc2ccc([N+](=O)[O-])cc2)CC(C)O1 (stereo not given) | 0.8% | -4.2 | 7 | 38 | 0.3 | -10
59 | Cc1nc(SCC(=O)NCCc2ccc(Cl)cc2)nc(C)c1C | -5.5%[38.3 µM] | -0.5 | 3 | -4 | -0.1 | 3
60 | CCOc1ccccc1NC(=O)C(C)CC (stereo not given) | 15% | 2.5 | 11 | 8 | 0.9 | -5
61 | CN(Cc1ccccc1)C(=O)c1ccc(Cl)c([N+](=O)[O-])c1 | 12% | -1.7 | 1 | -16 | 0.1 | -10
62 | CC(C)N(C)C(=O)CCc1nnc(CCc2c[nH]c3ccccc23)o1 | 0.1% | 0.5 | 7 | -6 | -0.3 | -3
63 | Cc1ccnc(SCC(=O)c2cc3ccccc3o2)n1 | 0.4% | 0.6 | 0 | -4 | -0.5 | 0
64 | O=C(c1cc(Cl)nc2ccccc12)N1CCc2ccccc2C1 | 1.3% | -4.6 | 13 | 15 | 4.1 | -10

Full records, quoted from the list. Screens in order: PINK1 modulator	D2 agonist	Six1-Eya2 inh	TRPML1 inh	TRPML1 agonist	D2 PAM
CN(Cc1ccccc1)C(=O)c1ccc(Cl)c([N+](=O)[O-])c1 reads 12%	-1.7	1	-16	0.1	-10
O=C(NNc1c2ccccc2nc2ccccc12)c1ccccc1O reads 3.8%	-5.0	?	-2	-0.3	-20
O=C(c1cc(Cl)nc2ccccc12)N1CCc2ccccc2C1 reads 1.3%	-4.6	13	15	4.1	-10
NNc1nc(-c2ccccc2)cs1 reads ?	-3.0	-2	7	0.7	-6
CCOc1ccccc1NC(=O)C(C)CC (stereo not given) reads 15%	2.5	11	8	0.9	-5

Screens (PubChem)

Hits appear at their usual frequency (roughly 1% active in at least one column).
